# VDR inh = Inhibitors of the vitamin D receptor (VDR): qHTS. 400,000 tested, 0.93% active. Potency, µM, without a hit: max response, negative = inhibition, usual class: inhibitors. VDR-SRC2-3 peptide fluorescence polarization, 2 h. AID 504847, 2011; active means well fitted inhibition curve with a large enough effect; inconclusive means small, poorly fitted or top-dose-only effect, or another doubt; inactive means no such curve, though single readings can be large or run the other way; further: series mostly up to about 120 µM
# Target sequence (P11473 whole entry, looked up): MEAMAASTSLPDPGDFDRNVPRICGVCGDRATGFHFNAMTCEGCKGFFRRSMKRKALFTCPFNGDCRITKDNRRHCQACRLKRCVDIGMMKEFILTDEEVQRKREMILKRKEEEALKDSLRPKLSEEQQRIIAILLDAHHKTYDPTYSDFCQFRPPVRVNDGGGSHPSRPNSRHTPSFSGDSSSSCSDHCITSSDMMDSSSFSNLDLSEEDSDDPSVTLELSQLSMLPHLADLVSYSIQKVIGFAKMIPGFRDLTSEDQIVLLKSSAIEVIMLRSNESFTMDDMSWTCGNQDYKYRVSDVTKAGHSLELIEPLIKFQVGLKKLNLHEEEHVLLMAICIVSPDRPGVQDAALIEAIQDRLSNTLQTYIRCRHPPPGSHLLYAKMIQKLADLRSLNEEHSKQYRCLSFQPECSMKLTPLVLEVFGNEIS
#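 Two reagent solutions held at 4 deg C in the dark were dispensed, compounds pinned at 23 nl, and the mixture incubated 2 h at room temperature. Read-out: fluorescence polarization of VDR–SRC2-3 peptide binding.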
# Starred values were filed as active, the others as inactive; u = inconclusive; & = joins results of further samples; [ ] = remark or other dose. On the % scale 0 is the no-effect control and ±100 the full control effect; potency means the concentration at half of the fitted maximal effect. Not all compounds are listed; the hit share may differ from the screen's.
cpd	SMILES	VDR inh
1	O=C(N/N=C/c1ccc(O)cc1)c1nc(-c2ccccc2)n(-c2ccccc2)n1	-11%
2	COc1ccc(-c2nc(SC)n(S(=O)(=O)c3ccccc3)n2)cc1	-13%
3	Cc1ccccc1N(C(=O)c1csnn1)C(C(=O)NC(C)(C)C)c1cccs1 (centres undefined)	u
4	CC(=O)c1ccc(Oc2nc(C)nc3c2oc2ccccc23)cc1	2%
5	O=C(NCc1ccc(/C=N\NC(=O)C(=O)Nc2ccccc2Br)o1)C(=O)Nc1ccccc1	-13%
6	CC(=O)ONC(=Nc1ccccc1)c1nonc1N	0%
7	CCN(CC)CCNC(=O)C1CCCN(c2ncnc3onc(C)c23)C1 (centres undefined)	-10%
8	O=C1CC(c2cccs2)c2cc3c(cc2N1)OCCO3 (centres undefined)	18%
9	Cc1c(=O)n(OCc2cccc(F)c2)c2ccccc2[n+]1[O-]	-4%
10	CCN(CC)C(=O)c1cccc2nc3ccccc3nc12	-13%
11	COc1ccc(CC(=O)Nc2cc(S(=O)(=O)N3CCCCC3)ccc2C)cc1OC	-14%
12	COc1ccc(Oc2cc(C)c3cccc(C)c3n2)cc1	-6%
13	CC(C)CCn1c(SCC(=O)c2ccccc2)nc2c1c(=O)[nH]c(=O)n2C	-1%
14	CCOc1ccc(C(=O)Nc2ccc3c(c2)OCCO3)cc1[N+](=O)[O-]	-13%
15	COc1cc(OC)nc(NC(=O)NS(=O)(=O)c2ccccc2Cl)n1	1%
16	Cc1ccc(NC(=O)NC2(C(=O)NCc3ccccc3)CCCCC2)cc1	-7%
17	Cc1ccc(S(=O)(=O)N(C)C)cc1NC(=O)COC(=O)C1CC1	0%
18	Cc1ccc(C(CNC(=O)Nc2ccc(Cl)cc2)N2CCN(C)CC2)cc1 (centres undefined)	-15%
19	NNC(=S)NCc1ccc2c(c1)OCO2	-8%
20	CCOC(=O)CNC(=O)CNC(=O)c1nn(-c2ccc(OC)c(OC)c2)c(=O)c2ccccc12	5%

cpd	SMILES	VDR inh
21	CCNc1nc(Oc2ccc(C(=O)OC)cc2)nc(N2CCOCC2)n1	-1%
22	CCCCn1c(=O)[nH]c(=O)c2c1nc(CN1C(=O)c3ccccc3S1(=O)=O)n2CCC	20%
23	CC1=C(C(=O)Nc2cccnc2)C(c2ccc(Cl)cc2)n2nc(SCc3ccccc3)nc2N1 (centres undefined)	-13%
24	CC(=O)c1ccc(OCc2cc(C(=O)N3CCN4CCCC4C3)no2)cc1 (centres undefined)	-6%
25	COCC(C)n1c(C)cc(C(=O)CSc2nc(C)c(C)c(C)n2)c1C (centres undefined)	-5%
26	O=C(Nc1ccc2c(c1)CCC2)c1cnc(Cl)c(Cl)c1	3%
27	CNC(=O)c1nnsc1S(=O)c1ccc(Cl)cc1 (centres undefined)	5.6µM*
28	COc1ccc(C(OC(=O)c2ccco2)C(=O)NC2CCCCC2)cc1 (centres undefined)	15%
29	COc1cccc(CNC(=O)C2=C(C)C(=O)OC23CCCCCC3)c1	-2%
30	COc1ccc(Cn2ccnc2SCC(=O)Nc2cccc(NC(C)=O)c2)cc1	-3%
31	COc1ccc(C2c3c(n(C)c4ccccc34)C(=O)N2CC(=O)Nc2ccc(Cl)cc2)cc1 (centres undefined)	-2%
32	CCCCN(Cc1ccccc1)S(=O)(=O)c1ccc2[nH]c(=O)oc2c1	0%
33	CC(=O)c1cc2c(cc1N/C(=N/S(=O)(=O)c1ccc(Br)cc1)c1ccccc1)OCO2	20%&8%
34	COc1ccc(S(=O)(=O)N2CCN(c3ccccc3OC)CC2)cc1-c1noc(C)n1	7%
35	COCCN=C(NS(=O)(=O)c1cccs1)c1ccccc1Cl	-1%
36	CC(C)(C)NC(=O)CSc1nc2ccccc2n1-c1ccccc1	13%
37	O=C(COC(=O)CSc1nnc(-c2ccc(Cl)cc2)o1)Nc1cc(Cl)cc(Cl)c1	-5%
38	COCC(=O)N1CCC2(CCCN(Cc3ccc(C#N)cc3)C2)CC1	-20%
39	Cc1ccc(SCC2=NN(c3nc(C)cc(C)n3)C(=O)C2)cc1	-8%
40	O=c1c(-c2ccccc2)nc2cnc(N3CCOCC3)nc2n1Cc1cccs1	-3%

# Ordered by formula weight (high to low): three of the compounds above.
cpd	SMILES	VDR inh
23	CC1=C(C(=O)Nc2cccnc2)C(c2ccc(Cl)cc2)n2nc(SCc3ccccc3)nc2N1 (centres undefined)	-13%
22	CCCCn1c(=O)[nH]c(=O)c2c1nc(CN1C(=O)c3ccccc3S1(=O)=O)n2CCC	20%
30	COc1ccc(Cn2ccnc2SCC(=O)Nc2cccc(NC(C)=O)c2)cc1	-3%

# The listing continues:
cpd	SMILES	VDR inh
41	Cc1ncc(CSSCc2cnc(C)c(O)c2CO)c(CO)c1O	u
42	O=C(c1cc(Cl)nc2ccccc12)N1CCN(Cc2ccc3c(c2)OCO3)CC1	-1%
43	Cc1cccc(-c2cc(C(=O)NCc3ccccn3)c3ccccc3n2)c1	10%
44	COc1cccc(/C=N/Nc2nc3ccccc3[nH]2)c1OC	4%
45	O=[N+]([O-])c1cc(-c2ccc(/C=N/c3nc4ccccn4c3-c3ccco3)o2)ccc1Cl	u
46	COc1ccc(C(NC(C)=O)c2nccc3cc(OC)c(OC)cc23)cc1OC (centres undefined)	3%
47	O=C(O)CN1C(=O)CNC1=O	-6%
48	COC(=O)[C@@]1(Cc2ccc(OC)cc2)[C@H]2c3cc(C(=O)N(C)C)n(C[C@H](O)CO)c3C[C@H]2CN1C(=O)c1ccccc1	5%
49	CCC(C(=O)NCc1ccco1)n1nc(C)c2c(C)n(-c3ccccc3)nc2c1=O (centres undefined)	-15%
50	CC1CC(C)CN(S(=O)(=O)c2ccc(C(=O)N3CCCC3)cc2)C1 (centres undefined)	-6%
51	Cc1ccc(S(=O)(=O)c2[nH]c(-c3ccccc3)nc2SC(C)C(=O)O)cc1 (centres undefined)	10%
52	Cc1ccc(NCc2ccccc2-c2nnc(-c3ccccc3Cl)o2)cc1Cl	4%
53	CCOC(=O)C1C(=O)CC(C)(O)C(C(=O)OCC)C1c1ccc(Br)cc1 (centres undefined)	14%
54	COc1ccc(CN2CCN(c3ncccn3)CC2)c(OC)c1	17%
55	Cc1ccc(OCc2cc(C(=O)NCc3cc(F)ccc3C)no2)cn1	3%
56	O=c1[nH]cccc1-c1nc2cc(Cl)ccc2n1Cc1ccccc1	-2%
57	COc1ccccc1NC(=S)NC(=O)c1c(-c2ccccc2Cl)noc1C	-4%
58	Cc1ccc(-c2cn3c(=S)[nH]nc3s2)cc1	-14%
59	Cc1ccc(Cn2c(CNC(=O)c3cccc(C)c3)nc3ccccc32)cc1	8%
60	COc1cc(C(=O)OC2CCOC2=O)cc(Cl)c1OC (centres undefined)	16%

# Individual results from the list.
# VDR inh, cpd 7 → -10%
# VDR inh, cpd 25 → -5%
# VDR inh, cpd 31 → -2%

# Next part.
cpd	SMILES	VDR inh
61	Cc1c(N(C)S(=O)(=O)c2ccc(Cl)c(C(=O)NCC3CCCO3)c2)c(=O)n(-c2ccccc2)n1C (centres undefined)	9%
62	CCc1ccc([C@@H]2CC=C(C(=O)O)[C@H](c3cccc(Cl)c3)N2S(=O)(=O)c2ccc(C)cc2)cc1	-26%
63	CCOc1ccc(C(C(=O)NC2CCCC2)N(C(=O)CNC(=O)c2ccco2)c2cccnc2)cc1 (centres undefined)	5%
64	c1ccc(OCc2nnc3sc(C4COc5ccccc5O4)nn23)cc1 (centres undefined)	71µM*
65	CN(C)n1cccc1/C=C(\C#N)S(=O)(=O)c1cccc(Cl)c1	-2%
66	COC(=O)c1ccc(/C=C/c2c(-c3ccc(OC)cc3)oc3ccc(N4CCOCC4)cc23)cc1	18%
67	Cc1ccc(OCC(=O)NNC(=S)NC(=O)C(C)(C)C)c(Br)c1	2%
68	c1ccc(-c2csc(Cc3nnc4n3CCCCC4)n2)cc1	15%
69	CSc1ccc(-c2nc3cnccn3c2Nc2ccc3c(c2)OCO3)cc1	-11%
70	CC(=O)N(C)c1cccc([N+](=O)[O-])c1	-3%
71	COc1cc(C(=O)Nc2ccc(OCc3cc(=O)n4cc(C)sc4n3)cc2)cc(OC)c1OC	-1%
72	C#CCOCCOCCOCCNc1nc(N2CCN(C(=O)[C@H]([C@@H](C)CC)n3cc(CCCN=C(N)N)nn3)CC2)nc(N2CCN(C(=O)[C@H](C)n3cc(CCCN=C(N)N)nn3)CC2)n1	12%
73	Cc1ccc(S(=O)(=O)Nc2cc(=O)[nH]c(SCC(=O)Nc3cccc(C)c3)n2)cc1	10%
74	COCCOC(=O)c1c(NC(=O)COC(=O)c2ccc(C)o2)sc(C(N)=O)c1C	-9%
75	COc1ccc(OC)c(S(=O)(=O)N2CCN(c3ccccc3)CC2)c1	-10%
76	COC(=O)c1ccc(NC(=O)c2cccnc2)cc1	5%
77	O=C(CCN1CCN(c2ccccc2F)CC1)Nc1ccc2c(c1)OCO2	0%
78	COc1cccc(-c2nc(CS(=O)(=O)CC(=O)Nc3ccc(C(C)=O)cc3)c(C)o2)c1	17%
79	O=C1C(=O)N(CCCn2ccnc2)C(c2cccc(Br)c2)/C1=C(\O)c1ccc2c(c1)OCCO2 (centres undefined)	-23%
80	CCCCNC(=O)c1cc2ccccc2s1	-13%

cpd	SMILES	VDR inh
81	CCOc1ccc(NC(=O)c2cc3c(=O)n(C)c4ccccc4c3n2C)cc1	-24%
82	CCC(C)c1ccccc1N1CC(C(=O)NCCCn2nc(C)cc2C)CC1=O (centres undefined)	-25%
83	CC(c1ccccc1)N1C(=O)CC(Sc2ncccc2C(=O)O)C1=O (centres undefined)	9%
84	CCCC[C@@H]1CCCO[C@@](C(=O)NCc2ccccn2)(C(F)(F)F)C1	-12%&-13%
85	COc1ccc(N=c2cc(-c3ccc(O)cc3)oc3ccccc23)cc1	8%
86	O=C(Cc1ccc(-n2cccc2)cc1)NC1CCCCCC1	-1%
87	O=C(NC1CCN(C(=O)Nc2ccccc2Cl)CC1)c1ccco1	-3%
88	CCCc1cc(N2CCN(c3ccc(OC)cc3)CC2)n2cnnc2n1	-2%
89	Cc1cc(-c2ccc(S(=O)(=O)N3CCN(c4ccc(Cl)cc4)CC3)s2)on1	-1%
90	CC(=O)c1ccc(COC(=O)Cc2ccc([N+](=O)[O-])cc2)cc1	-5%
91	CC(C)=CCC1=C(O)[C@](O)(CC=C(C)C)C(=O)C(C(=O)CC(C)C)=C1O	u
92	O=C1CCc2cc(S(=O)(=O)NC(C(=O)Nc3cccc(F)c3)c3ccccc3)ccc2N1 (centres undefined)	6%
93	Cn1c(=O)oc2cc(S(=O)(=O)N3CCCC(C(=O)NCCN4CCOCC4)C3)ccc21 (centres undefined)	13%
94	Cc1ccc2nc(C)cc(Nc3ccc([N+](=O)[O-])cc3)c2c1	31%[activator]
95	O=C(CSCc1ccccc1)Nc1ccccc1	-19%
96	O=C(O)/C(CC(=O)c1ccc(Cl)cc1)=N/Nc1ccc([N+](=O)[O-])cc1[N+](=O)[O-]	-27%
97	c1cncc(-c2nc(NCc3cccs3)c3ccccc3n2)c1	0%&5%
98	O=C(COC(=O)c1ccc(NS(=O)(=O)c2cccs2)cc1)NCC1CCCO1 (centres undefined)	-7%
99	COc1ccccc1NC(=O)Nc1cc(F)ccc1F	9%
100	Cc1cccc(-n2c(=O)c3ccccc3n(Cc3ccccc3C#N)c2=O)c1	-14%

# Structural class, the entries above with bromine
cpd	SMILES	VDR inh
5	O=C(NCc1ccc(/C=N\NC(=O)C(=O)Nc2ccccc2Br)o1)C(=O)Nc1ccccc1	-13%
33	CC(=O)c1cc2c(cc1N/C(=N/S(=O)(=O)c1ccc(Br)cc1)c1ccccc1)OCO2	20%&8%
53	CCOC(=O)C1C(=O)CC(C)(O)C(C(=O)OCC)C1c1ccc(Br)cc1 (centres undefined)	14%
67	Cc1ccc(OCC(=O)NNC(=S)NC(=O)C(C)(C)C)c(Br)c1	2%
79	O=C1C(=O)N(CCCn2ccnc2)C(c2cccc(Br)c2)/C1=C(\O)c1ccc2c(c1)OCCO2 (centres undefined)	-23%

# Remaining list, next part.
cpd	SMILES	VDR inh
101	CCc1cc(Cn2nc(-c3ccccc3)cc2C(=O)NCCOC)on1	-3%
102	O=C(NNc1nc2c(F)cc(F)cc2s1)c1ccccc1	3%
103	Cc1cc(S(=O)(=O)c2cc3ccc(O)c(C)c3oc2=O)ccc1F	-10%
104	Cc1ccc(Nc2sc(C(=O)c3ccccc3)c(N)c2C(=O)Nc2ccc(Cl)cc2)cc1	-13%
105	CC1(C)C(=O)Nc2ccccc2N1C(=O)COc1ccc(C#N)cc1	-4%
106	O=C(CSc1oc(-c2ccco2)nc1S(=O)(=O)c1ccc(F)cc1)NCC1CCCO1 (centres undefined)	-2%
107	CCN(C(=O)CN1C(=O)/C(=C/c2ccccc2)SC1=S)C1CCS(=O)(=O)C1 (centres undefined)	-10%
108	CCc1nnc(NC(=O)c2nc(SCc3ccccc3F)ncc2Cl)s1	4%
109	Cc1nc2cc(NS(=O)(=O)c3ccc(Br)cc3)ccc2n1C	-7%
110	COc1ccc(NC(=O)[C@H]2O[C@@H]3OC(C)(C)O[C@@H]3[C@H]3OC(C)(C)O[C@H]32)c(OC)c1	21%
111	CCOC(=O)c1ccc2ncc(-c3ccccc3)nc2c1	12%
112	COc1ccc(CNC(=O)CCc2c(C)nc3c(c(C)nn3-c3ccccc3)c2C)cc1	15%
113	CN(C(=O)c1ccccc1C(=O)OCC(=O)Nc1ccc(S(N)(=O)=O)cc1)c1ccccc1	-2%
114	C=CCc1ccccc1OCC(=O)NNC(=S)NCc1ccccc1	-17%
115	CCC(c1nnc(SCC(=O)NC23CC4CC(CC(C4)C2)C3)o1)N(C)C (centres undefined)	0%
116	NC(N)=Nc1nc2ccc([N+](=O)[O-])cc2[nH]1	-23%
117	Cc1cc(C)cc(NC(=O)CNS(=O)(=O)c2ccc3nc(C)sc3c2)c1	3%
118	Cc1ccc(S(=O)(=O)N(CC(=O)N2CCc3ccccc3C2)c2ccc(C)c(C)c2)cc1	13%
119	CN(C(=O)CN1C(=O)S/C(=C\c2ccccc2Cl)C1=O)C1CCS(=O)(=O)C1 (centres undefined)	-16%
120	O=C(CSc1nnc(-c2ccco2)o1)NC1CCCCCC1	u
121	Cc1ccc(/C=C(\C#N)C(=O)Nc2c(C)cccc2C)s1	11%
